SARS PLP yeast: qHTS of Yeast-based Assay for SARS-CoV PLP. S. cerevisiae expressing SARS-CoV PLpro, growth rescue; control for the full effect not named in the record. hit rate 0.19% among 330,000. AID 485353, 2010. Potency, µM (series often up to 32.9 µM), without a hit: at the top dose activity, positive = growth rescue; active means well fitted rising curve with a large enough effect; inconclusive means small, poorly fitted or top-dose-only effect; inactive means no such curve, though single readings can be large or run the other way; note: 0% is about no effect; nearly all actives have a fitted effect of over 55% in size; growth read by luminescence after 48 h
RE007 growth inh: qHTS Assay for Inhibitors of the HIV-1 protein Vpr. AID 651644, 2012. S. pombe RE007 Vpr strain, BacTiter-Glo ATP luminescence, 24 h; control for the full effect not named in the record. Potency, µM (doses to about 92.2 µM), inactives show at the top dose activity change, negative = less growth. hit rate 0.21% among 360,000; active = well fitted falling curve with a large enough effect; inconclusive = small, poorly fitted or top-dose-only effect; inactive = no such curve, though single readings can be large or run the other way;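 note: % is set by controls: 0 for no effect and ±100 for the full control effect; nearly all actives have a fitted effect of over 50% in size; the assay follows cell death caused by Vpr and the record does not say whether a fall means rescue or toxicity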
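Fission yeast strain RE007, carrying one chromosomally integrated HIV-1 vpr copy, was seeded at OD 0.01 in PMG+AL medium with 23 nL pinned compound. After 24 h at 30 °C and 99% humidity, viability was read by BacTiter-Glo luminescence.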
Marburg entry inh: qHTS for inhibitors of binding or entry into cells for Marburg Virus; Marburg virus pseudotyped entry inhibition, cell reporter; control for the full effect not named in the record; about a third of the inactives were read at about 46 µM; Potency, µM (doses to about 37.8 µM), for the others: top-dose activity change, negative = inhibition, hits mostly inhibitors; hit rate 1.8% among 300,000; active = well fitted inhibition curve with a large enough effect; inconclusive = small, poorly fitted or top-dose-only effect, or effect the other way; inactive = flat fitted curve, though single readings scatter; tested in HEK293 cells; about a fifth of its hits are not listed in these tables; note: % is set by controls: 0 for no effect and ±100 for the full control effect; luciferase read-out
Cruzain Triton: qHTS Assay for Promiscuous and Specific Inhibitors of Cruzain (with detergent). Cruzipain (Trypanosoma cruzi), P25779. purified cruzain, Z-FR-AMC fluorescence, 0.01% Triton. Potency, µM, inactives show max response, negative = inhibition, most hits filed as inhibitors. hit rate 0.43% among 200,000;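 note: plate controls were neutral wells for no effect and buffer without enzyme for full effect; nearly all actives have a fitted effect of over 40% in size; top concentration of the series not given in the record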
Target sequence (P25779 123-467 limits assumed): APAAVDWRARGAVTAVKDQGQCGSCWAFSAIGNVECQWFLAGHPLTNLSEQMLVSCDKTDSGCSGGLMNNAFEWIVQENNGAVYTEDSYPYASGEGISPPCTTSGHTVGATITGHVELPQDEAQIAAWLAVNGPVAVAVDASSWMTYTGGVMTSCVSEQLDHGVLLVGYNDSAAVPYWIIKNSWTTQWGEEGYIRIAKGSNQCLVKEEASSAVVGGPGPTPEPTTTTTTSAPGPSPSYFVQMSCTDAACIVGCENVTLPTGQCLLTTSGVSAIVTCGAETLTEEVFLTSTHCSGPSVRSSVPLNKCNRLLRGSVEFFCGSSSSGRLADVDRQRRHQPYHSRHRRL
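Detergent-containing run (0.01% Triton X-100) in acetate buffer pH 5.5 with 5 mM DTT: enzyme at 1.5 nM final, 15 min compound preincubation at room temperature, then 2 uM Z-FR-AMC substrate. Activity taken as 60 s fluorescence increase at 360/450 nm.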
LASV entry inh: qHTS for Inhibitors of binding or entry into cells for Lassa Virus; hit rate 1.2% among 300,000; Lassa virus pseudotype entry inhibition, cell reporter; control for the full effect not named in the record; AID 540256, 2011; Potency, µM (highest dose often 37.9 µM), for the others: at the top dose activity change, negative = inhibition, most hits filed as inhibitors; active means well fitted inhibition curve with a large enough effect; inconclusive means small, poorly fitted or top-dose-only effect, or effect the other way; inactive means flat fitted curve, though single readings scatter; tested in HEK293 cells; note: % is set by controls: 0 for no effect and ±100 for the full control effect; nearly all actives have a fitted effect of over 50% in size; luciferase read-out
Cruzain noTriton: qHTS Assay for Promiscuous and Specific Inhibitors of Cruzain (without detergent). Cruzipain (Trypanosoma cruzi), P25779. purified cruzain, Z-FR-AMC fluorescence, no detergent. Potency, µM, for the others: max response, negative = inhibition, actives largely listed as inhibitors. hit rate 2.3% among 200,000. AID 1476, 2009;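 note: plate controls were enzyme without inhibitor for no effect and buffer without enzyme for full effect; nearly all actives have a fitted effect of over 40% in size; top concentration of the series not given in the record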
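Detergent-free condition (0.00005% Triton X-100) in acetate buffer pH 5.5 with DTT. 1.5 nM enzyme and compound were pre-mixed 15 min, then 2 uM Z-FR-AMC substrate added; reaction progress from fluorescence change between first and third reads (60 s).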
NS1 function inh: qHTS Assay for Inhibitors of Influenza NS1 Protein Function | S. cerevisiae slowed by influenza A NS1, growth recovery by OD600 | Potency, µM (series often up to 46.1 µM), for the others: top-dose activity, positive = more growth | hit rate 0.4% among 270,000 | AID 2326, 2010; active means well fitted rising curve with a large enough effect; inconclusive means small, poorly fitted or top-dose-only effect; inactive means no such curve, though single readings can be large or run the other way; note: nearly all actives have a fitted effect of over 50% in size
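Recovery from NS1-induced slow growth read by OD600 in budding yeast switched to galactose assay medium (pH 6.0, -URA) at 1:100 dilution. Compound 23 nl per well; the matching strain lacking NS1 serves as control.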
StopGo reporter: High Throughput Screening for Foot and Mouth Disease Virus Antivirals | hit rate 1.2% among 410,000 | Potency, µM (titrated, usually from 57.9 µM), inactives show top-dose signal change, negative = less light | human cells with a luciferase reporter of 2A StopGo recoding; control for the full effect not named in the record | AID 1159524, 2015; active = well fitted falling curve with a large enough effect; inconclusive = small, poorly fitted or top-dose-only effect; inactive = no such curve, though single readings can be large or run the other way; tested in HEK293T cells; note: % is set by controls: 0 for no effect and ±100 for the full control effect; nearly all actives have a fitted effect of over 45% in size; luciferase light after 4 h
* = called active by the depositor; ? = inconclusive; · = not tested or not shown; & = joins results of further samples; [ ] = another dose, or the depositor's remark. Unless noted, calls come from the whole dose curve; as a rule, active = well fitted curve in the direction sought with a large enough effect; inconclusive = small, poorly fitted or top-dose-only effect, or another doubt; inactive = no such curve, though single readings can be large; an effect the other way counts as inactive or inconclusive. Potency is the fitted concentration of half-maximal effect. This is a random part of the collection; about 4.7% have a hit in one of these screens.

SMILES,Cruzain Triton,Cruzain noTriton,Marburg entry inh,StopGo reporter,NS1 function inh,SARS PLP yeast,RE007 growth inh,LASV entry inh
O=C(OCC(=O)N1CCc2ccccc21)C1=COCCO1,2.8%,-15%,?,-8%,3%,-3%,2%,?
CCn1c(SCC(=O)NCCc2ccc(Cl)cc2)nnc1-c1cccs1,0.3%,-11%,-2%,-17%,-8%,2%,-1%,-12%
Clc1nc(Cl)nc(-c2cn(-c3ccccc3)c3ccccc23)n1,·,·,·,-5%,3%,0%,8%,·
COc1cc(OC)cc(-c2nc3nc(C)c(CCC(=O)NCCC(C)C)c(C)n3n2)c1,3.6%,-3%,25%[46.1 µM],14%,·,·,·,8%[46.1 µM]
CCOC(=O)c1sc2nc(CC(=O)OC)nc(NCCN3CCOCC3)c2c1C,-8.0%,-12%,?,-6%,-2%,-3%,1%,5%
CCOc1ccccc1NC(=O)C(=O)NCC1CCCN1CC (stereo not drawn),5.4%,-9%,4%,·,-3%,5%,13%,3%
O=C(NNS(=O)(=O)c1ccc(F)cc1)c1ccc(S(=O)(=O)N2CCCCC2)cc1,0.4%,-4%,-10%,20%,-4%,24%,-1%,-1%
Cc1cc(C)c(C#N)c(SCC(=O)Nc2cccc(S(=O)(=O)N3CCCC3)c2)n1,·,·,12%,-5%,·,4%,-8%,18%
COc1ccc([N+](=O)[O-])c(OC)c1C(=O)Nc1ccc(F)cc1F,·,·,?,16%,3%,0%,-3%,-10%[46.1 µM]
COc1ccc(C2CC(c3ccccc3)Nc3nc(NS(C)(=O)=O)nn32)cc1 (stereo not drawn),·,·,·,8%,-1%,-2%,1%,·
COCCn1c(SCC(=O)Nc2ccc(OC)c(S(N)(=O)=O)c2)nc2ccccc21,·,·,·,-21%,6%,1%,12%,·
O=C(CN1C(=O)C2CCCCC2C1=O)Nc1nccs1 (stereo not drawn),·,·,0%[46.1 µM],-9%,·,-1%,5%,·
N#Cc1c(-c2ccc(F)cc2)cc(C2CC2)nc1SCC(=O)c1cccs1,1.7%,?,18%,-9%,11%,?,·,-26%
CCN(CC(=O)NCc1cccs1)C(=O)c1ccc(C)o1,·,·,-7%,-2%,·,-1%,-10%,0%
COc1cc(NC(=O)COC(=O)CC(NC(C)=O)c2ccccc2)cc(OC)c1 (stereo not drawn),·,·,-3%[46.1 µM],-6%,26%,0%,-9%,4%
CN(C)CCCn1c2c(c(SCC(=O)Nc3ccc4c(c3)OCO4)nc1=O)CCC2,·,·,?,-3%,·,6%,-1%,?
CCC1CCc2nc3sc(C(=O)Nc4ccc(F)cc4F)c(N)c3cc2C1 (stereo not drawn),-1.4%,-2%,3%[46.1 µM],6%,·,·,·,11%[46.1 µM]
COc1ccc2oc(-c3ccccc3)c(C(=O)N(C)C)c2c1,·,·,·,5%,-13%,-6%,-16%,·
CC(=O)NCCC(=O)N1CCCC(N(C)CCc2ccccc2)C1 (stereo not drawn),·,·,·,6%,-10%,10%,-18%,·
O=C(/C=C\c1ccc2c(c1)OCO2)NC1(C(=O)Nc2ccc3c(c2)OCO3)CCCCC1,-2.3%,-11%,?,2%,6%,-3%,-4%,2%
CCN(C(=O)CN1CCN(C)CC1)c1cccc2ccccc12,4.4%,-6%,0%,-18%,0%,-1%,9%,-4%
COc1ccc(/C=C/C(=O)N2CCOCC2)cc1OC,·,·,·,-13%,5%,17%,2%,·
CCOc1cc(/C=C/c2nc3cc(C)c(C)cc3s2)ccc1OCC(=O)N1CCOCC1,0.6%,?,-19%,-13%,12%,12%,1%,-12%
CCOC(=O)C1CCN(C(=O)CCc2c(C)nc3cc(-c4ccccc4)nn3c2C)CC1,-0.1%,?,-4%,-29%,-4%,0%,5%,·
O=C(Nc1ccncc1)Nc1ccccc1Cl,·,·,·,-4%,2%,30%,7%,·
O=C(NCCCN1CCOCC1)C1CCN(S(=O)(=O)c2cccc(Cl)c2Cl)CC1,·,·,-5%,-23%,·,-3%,-4%,?
O=C(COC(=O)/C=C/c1cccc(F)c1)NNC(=O)c1ccccc1,·,·,?,-1%,·,1%,14%,?
CCCC[C@@H]1CNC(=S)N1CCc1cccc2ccccc12,·,·,·,75%[activator],3%,0%,2%,·
CCN(C(=O)c1ccco1)c1nnc(-c2ccc(OC)cc2)s1,-7.2%,-9%,?,28%,-4%,-1%,18%,?
Cn1c(=O)[nH]c(=O)c2c1nc(N(CCO)Cc1ccccc1)n2Cc1ccccc1Cl,1.1%,-1%,-3%&6%,-20%,-8%[9.22 µM],-5%,-13%,-12%
CCn1cc(C(=O)O)c(=O)c2cnc(N3CCN(C(=S)Nc4ccccc4C(F)(F)F)CC3)nc21,·,·,10%[46.1 µM],?,3%,1%,-15%,?
CCCNC(=O)C(CC)n1nc(CC)n2c(cc3oc(C)cc32)c1=O (stereo not drawn),-3.7%,-15%,-14%[46.1 µM],3%,·,·,·,·
COc1ccc(S(=O)(=O)N(C)CC(=O)Nc2c(F)cccc2F)cc1,-7.9%,10%,1%,-7%,-38%,1%,3%,?
O=C(NC1=NCCS1)Nc1ccccc1,-5.4%,-11%,?,8%,-2%,-8%,-14%,-23%
CCc1ccc(NC(=O)c2onc(C)c2Cl)cc1,-1.5%,?,·,0%,-19%,2%,-19%,·
Cc1c(NS(=O)(=O)c2cccc(C(=O)Nc3ccc(SC(F)F)cc3)c2)c(=O)n(-c2ccccc2)n1C,·,·,?,?,·,·,2%,?
COc1cccc(/C=C2\C(=O)N(c3cccc(C)c3)C(=O)c3ccccc32)c1,2.8%,-21%,-11%,?,?,-18%,-1%,10%
COc1ccccc1N1CCN(C2CCN(C(=O)c3ccc(F)cc3)CC2)CC1,0.2%,-1%,2%,-31%,9%,2%,-4%,-11%
CC1CCN(Cc2nnnn2-c2cccc([N+](=O)[O-])c2)CC1,5.5%,6%,6%,-14%,10%,3%,4%,0%
Cc1ccccc1CC(=O)N1CCOCC1,·,·,·,-14%,0%,-1%,-7%,·
CN1CCC(N2CCN(c3cccc(C(F)(F)F)c3)CC2)CC1,1.6%,-6%,?,·,-7%,-7%,8%,10%
COc1ccc(NC(=O)CN(C)C(=O)CSc2nc3ccccc3s2)cc1,·,·,-13%[46.1 µM],2%,·,·,-6%,6%
CN(NS(=O)(=O)c1cccs1)c1ncc(C(F)(F)F)cc1Cl,·,·,1%[46.1 µM],-4%,0%,4%,6%,2%[46.1 µM]
CCOc1ccc(-c2cc(C(=O)NCc3ccc(OCC)c(OC)c3)[nH]n2)cc1,-3.0%,21%,·,-22%,·,·,·,7%[46.1 µM]
CC(C)OC(=O)NCN1C(=O)C2C3C=CC(C3)C2C1=O (stereo not drawn),3.6%,-8%,2%,2%,8%,0%,5%,-2%
COc1ccc(-n2nc(C(=O)NCC(=O)N3CCC4(CC3)OCCO4)c3ccccc3c2=O)cc1,·,·,?,11%,-13%,1%,10%,·
Cc1cc(-c2cc(-c3ccccc3)on2)nc(NC2CCCC2)n1,·,·,·,0%,-33%,-16%,-4%,·
CCOc1c2ccc(C(=O)NCc3ccc(C)cc3)cc2nn1CC,-8.5%,-1%,·,-6%,7%,-5%,9%,·
CCOC(=O)Cn1nc(C)c2ccccc2c1=O,-0.9%,-2%,-11%&-11%,5%,9%,1%,6%,-1%
C/C(Cn1nnc([N+](=O)[O-])n1)=N\NC(=O)c1ccc(C)cc1,0.3%,-3%,?,-28%,27%,-3%,-16%,?

Following part.
SMILES,Cruzain Triton,Cruzain noTriton,Marburg entry inh,StopGo reporter,NS1 function inh,SARS PLP yeast,RE007 growth inh,LASV entry inh
COc1ccc2c(COC(=O)[C@@H]3CCCN3S(=O)(=O)c3ccc(Cl)cc3)cc(=O)oc2c1,·,·,12%,-10%,·,-3%,-12%,-6%[46.1 µM]
Cc1nonc1NC(=O)CSc1nc2ccc(Cl)cc2[nH]1,·,·,3%[46.1 µM],15%,-8%,-4%,-9%,11%[46.1 µM]
O=C(Nc1ccccn1)C(=O)N1CCCCC1,1.5%,11%,20%,46%[activator],4%,-5%,18%,0%
COc1ccc(Cl)cc1NC(=O)Cn1cnc2sc(C)c(S(=O)(=O)N3CCN(c4ccccc4OC)CC3)c2c1=O,-1.9%,2%,20%[46.1 µM],-8%,·,·,·,3%[46.1 µM]
CCc1nnc(NC(=O)c2ccc3c(c2)C(=O)N(CC)C3=O)s1,·,·,-2%,17%,·,·,-11%,16%
CCCSc1nc2c([nH]1)c(=O)n(C)c(=S)n2C,·,·,3%,?,·,·,-3%,0%
COC(=O)Cc1cc(=O)[nH]c(/N=C(\N)Nc2ccc(C(C)C)cc2)n1,·,·,1%[46.1 µM],?,2%,1%,-3%,10%
Cc1cc(NC(=O)COC(=O)c2nccnc2N)n(-c2ccccc2)n1,·,·,11%[46.1 µM],-19%,·,-4%,16%,13%
CCN(CC)C(=O)[C@H]1C[C@H](CC(=O)NCCC2=CCCCC2)C(=O)N2CCc3c([nH]c4cc(CCC(=O)N(C)C)ccc34)[C@]12C,·,·,1%,20%,·,-15%,15%,·
Cn1nnnc1SCCNC(=O)C1CCC(=O)N(CCc2ccccc2)C1 (stereo not drawn),·,·,0%[46.1 µM],-3%,9%,-1%,-3%,-1%[46.1 µM]
Cc1nc2ccccc2n1CCc1nc2c3ccccc3nc(SCc3cccc(F)c3)n2n1,2.6%,-7%,·,0%,·,·,·,10%[46.1 µM]
COc1ccc(Cn2nnnc2C(c2cc3cc(C)ccc3[nH]c2=O)N2CCOCC2)cc1 (stereo not drawn),-4.3%,-3%,8%,-8%,-10%,5%,-9%,3%
Nc1c(-c2ccc(Cl)cc2)cnc2c(-c3ccccc3)cnn12,·,·,?,47%,-2%,-3%,6%,?
O=C(Cn1c(NCCO)nc2ccccc21)Nc1ccc2c(c1)OCCCO2,·,·,-6%[46.1 µM],-12%,·,-4%,-11%,3%
